# WT yeast gro inh: growth inhibition of WT yeast, mitochondrial fusion screen; 2.1% of 190,000 active; AID 1362; mitochondrial fusion phenotypic screen, WT strain; inhibition, % at 10 µM; in the data active = inhibition above about 58%; tested in S. cerevisiae
# RSV antiviral HEp-2: RSV antiviral activity via CPE protection, HEp-2 cells, primary 10 µM value included (AID 2391) | HEp-2 cells, RSV-induced CPE inhibition; higher % means a stronger effect | CPE inhibition, % at 10 µM; hits with a dose series show IC50 in µM | 0.13% of 310,000 active; in the data active = a potency from the dose series; inconclusive = CPE inhibition mostly from about 23% at the one dose, without a potency; inactive = the rest, 99 in 100 with CPE inhibition below about 21%; note: strong numbers were not always called active
# Myeloid diff 2: compounds promoting myeloid differentiation. calls only at 10 µM. ER-HoxA9 myeloid progenitors, lysozyme-GFP differentiation, flow cytometry. 1% of 360,000 active. AID 624256;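 active = normalized GFP-positive differentiation at or above the plate's own cutoff, the solvent-only control mean plus 3 SD; inconclusive = no clear call, values can overlap the other calls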;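 note: cells exposed to compound for four days before flow analysis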
# XIAP displacement: XIAP antagonists, biochemical, IAP family, fluorescence polarization (AID 1018). XIAP BIR domain, fluorescence polarization peptide displacement; higher % means a stronger effect. displacement, % at 20 µM; hits with a dose series show IC50 in µM. 0.007% of 200,000 active; in the data active = displacement above about 50%; note: a part of the inactive calls stands beside numbers as strong as those of hits
# Salmonella PhoP GFP: PhoP-dependent GFP reporter repression – Salmonella Typhimurium, primary screen (AID 1863); S. Typhimurium PhoP-regulated promoter GFP reporter, 4 h; higher % means a stronger effect; inhibition, % at 50 µM; hits with a dose series show IC50 in µM; 0.16% of 300,000 active;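 active = inhibition over 29.93%, a cutoff 3 SD above the screen mean, later confirmed by dose response; inconclusive = inhibition over 29.93% but no dose response follow-up; inactive = inhibition at most 29.93% or unconfirmed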;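 note: 0% = low Mg2+ inducing control and 100% = high Mg2+ repressing control; strong numbers were not always called active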
# Siah-1 displacement: Siah-1 peptide-binding antagonists, primary screen, biochemical, fluorescence polarization, rhodamine-plectin, uHTS (AID 1817); Siah-1 / rhodamine-plectin peptide fluorescence polarization; higher % means a stronger effect; displacement, % at 20 µM; hits with a dose series show IC50 in µM; 0.02% of 290,000 active;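 active = displacement of at least 50% at 20 µM, with a fluorescence ratio check between 0.3 and a set limit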;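 note: plate controls were Siah plus tracer with DMSO for no effect and tracer alone without Siah for full effect; strong numbers were not always called active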
# TNAP activation fold: human TNAP enzyme activators, primary screen, biochemical, luminescent, no phosphate acceptor, uHTS (AID 1001). purified TNAP, luminescent activation assay, no phosphate acceptor; higher activation fold means a stronger effect. activation fold at 20 µM; hits with a dose series show EC50 in µM. 0.03% of 200,000 active; in the data active = activation fold from about 3, or a potency from the dose series; inactive = the rest, 99 in 100 with activation fold below about 1.6; note: many of its hits are not listed in these tables
# WT yeast gro inh mutant strain: second read-out of WT yeast gro inh, no call of its own (marks repeat the call); inhibition, %; mitochondrial fusion phenotypic screen, mutant strain inhibition
# Myeloid diff 2 GFP+ MAC1+ %: recorded beside Myeloid diff 2, whose call it bears; GFP+ MAC1+ double positive, %; measured here: differentiation confirmed by MAC1 staining
# Numbers without * were called inactive; i = inactive; ? = inconclusive; / = not tested or not shown; + = active, no number. This is a subset; the hit share may differ from the screen's.
SMILES,WT yeast gro inh,WT yeast gro inh mutant strain,RSV antiviral HEp-2,Myeloid diff 2,Myeloid diff 2 GFP+ MAC1+ %,XIAP displacement,Salmonella PhoP GFP,Siah-1 displacement,TNAP activation fold
O=C(Cn1cnc2cc(Cl)ccc2c1=O)Nc1ccc2c(c1)OCO2,8,6,-1.1%,i,0.7,-2.2%,-10%,-4%,1.1
Cc1nc(-c2cccnc2)sc1C(=O)Nc1ccc(Cl)cc1,4,-29,19%,i,4.3,-13%,8%,4%,1.1
Cc1c(NC(=O)OCCNC(=O)Nc2ccccc2)sc(=S)n1C,0,14,1.6%,i,0.7,-4.4%,4%,4%,1.1
Cn1c(Nn2cnnc2)nc2ccccc21,8,16,2.0%,i,1.2,-3.2%,-7%,4%,1
Cn1c(SCC(=O)NCc2ccc3c(c2)OCO3)nnc1-c1cc2ccccc2cc1O,-7,-9,1.6%,i,0.5,0.0%,4%,-1%,1
Cc1oc2c(O)c(O)ccc2c(=O)c1-c1cnn(-c2ccccc2)c1,8,-4,?,i,1.4,-6.4%,6%,-10%,1.1
CC(=O)c1cccc(NC(=S)NC(=O)CC(C)(C)C)c1,4,-4,0.6%,i,0.8,-0.7%,-2%,0%,1.1
Cc1ccc(/C=C2/NC(=O)N(Cc3ccccc3)C2=O)s1,-4,0,1.8%,i,2.2,-3.5%,-15%,-6%,1.1
CCOC(=O)c1c(C)[nH]c(C(=O)CSc2nnc(-c3cccs3)n2Cc2ccccc2)c1C,0,-14,2.4%,i,1.2,-4.9%,7%,-1%,1
CCCc1cc(=O)oc2cc(OCc3nn[nH]n3)ccc12,-6,-12,0.6%,i,3.3,-1.8%,12%,4%,0.9
O=C1c2ccccc2C(=O)N1Nc1ccccc1,-18,-5,0.2%,i,0.8,0.3%,-5%,-4%,1
O=S(=O)(Nc1ccc(S(=O)(=O)N2CCCCC2)cc1)c1cccs1,14,8,1.6%,i,1.1,-0.2%,9%,-3%,1.1
O=C(CN1C(=O)C2C3C=CC(C3)C2C1=O)NC1CCCc2ccccc21 (stereo not given),-2,7,0.8%,i,0.4,-3.6%,-5%,2%,1.1
CCOC(=O)c1c(C)n(C)c2ccc(OC)c(NC(=O)CN3CCN(Cc4ccccc4)CC3)c12,7,-2,0.6%,i,1.6,1.3%,2%,0%,1
O=C(CSc1nccn1-c1ncc(C(F)(F)F)cc1Cl)c1ccc(Cl)cc1,-2,4,4.3%,i,1.0,-1.9%,0%,0%,1.1
COc1ccc(-n2nc(C(=O)NCC(=O)Nc3ccccn3)c3ccccc3c2=O)cc1Cl,-7,3,/,i,0.8,-13%,-7%,1%,1
CN(Cc1cc2ccccc2[nH]c1=O)S(C)(=O)=O,14,14,1.7%,i,0.3,-2.0%,14%,2%,1.1
COCCNC(=O)COC(=O)c1nsc(Cl)c1Cl,-11,-6,3.1%,i,0.8,-4.3%,-4%,-2%,1.1
O=C(O)C1C2C=CC(O2)C1C(=O)NC1CCCc2ccccc21 (stereo not given),6,18,2.4%,i,0.7,-3.2%,-21%,1%,1.1
CCc1ccc(Cn2nnc(C(=O)NCc3ccccc3OC)c2N)cc1,15,0,0.1%,i,2.7,-3.8%,11%,2%,0.9
COc1ccc2sc3c(=O)[nH]c4ccccc4c3c2c1,40,2,10%,+,3.2*,-5.0%,-8%,1%,1.1
O=C(/C=C/c1ccccc1)N1CCN(Cc2nc3ccccc3c(=O)[nH]2)CC1,26,-27,0.0%,i,1.4,-5.3%,0%,-1%,1
CCC(C)NC(=O)CCC(=O)Nc1ccc2nc(N3CCOCC3)cc(C)c2c1 (stereo not given),-9,0,0.8%,i,2.0,-1.0%,13%,-3%,1.1
CC(=O)Nc1ccc(S(=O)(=O)N2CCN(C(=O)c3cccnc3)CC2)cc1,-5,-3,1.6%,i,1.3,-10%,-1%,-2%,1
Cc1ccc2c(c1)SC1=NC(c3ccccc3)(C(F)(F)F)NC(=O)N12 (stereo not given),37,2,0.8%,/,/,-5.0%,-13%,3%,0.9

# Entries shown so far that have a CF3 group (2):
SMILES,WT yeast gro inh,WT yeast gro inh mutant strain,RSV antiviral HEp-2,Myeloid diff 2,Myeloid diff 2 GFP+ MAC1+ %,XIAP displacement,Salmonella PhoP GFP,Siah-1 displacement,TNAP activation fold
O=C(CSc1nccn1-c1ncc(C(F)(F)F)cc1Cl)c1ccc(Cl)cc1,-2,4,4.3%,i,1.0,-1.9%,0%,0%,1.1
Cc1ccc2c(c1)SC1=NC(c3ccccc3)(C(F)(F)F)NC(=O)N12 (stereo not given),37,2,0.8%,/,/,-5.0%,-13%,3%,0.9

# Further results
SMILES,WT yeast gro inh,WT yeast gro inh mutant strain,RSV antiviral HEp-2,Myeloid diff 2,Myeloid diff 2 GFP+ MAC1+ %,XIAP displacement,Salmonella PhoP GFP,Siah-1 displacement,TNAP activation fold
COC(=O)c1cc(CSc2nc3ccc(C)cc3[nH]2)oc1C,4,-3,-0.3%,i,1.3,-2.1%,/,2%,1.3
COc1cc(Nc2nc(-c3ccccc3)c3cc(C)ccc3n2)cc(OC)c1OC,73*,7.8*,7.8%,i,0.5,-3.4%,18%,0%,0.7
CN(C)S(=O)(=O)c1ccc(NC(=O)N2CCN(c3ccccc3)CC2)cc1,8,-17,1.2%,i,0.7,0.1%,-5%,-3%,1.1
COc1c(F)c(F)c(C(=O)O)c(Nc2ccccc2C)c1F,74*,15*,-0.5%,i,7.3,-2.8%,-3%,6%,1
CC(=O)C(N=Nc1ccccc1)(Sc1nnc(-c2ccccc2)n1-c1ccccc1)C(C)=O,79*,-12*,5.0%,i,1.0,-2.2%,-7%,2%,0.9
O=C(c1ccc(COc2ccccc2Br)o1)N1CCN(c2ccccn2)CC1,1,0,21%,i,1.2,-2.7%,5%,0%,1.1
COC(=O)c1ccc2c(c1)C(C)(C)C(/C=C/c1ccc(OC)c(OC)c1OC)=[N+]2C,11,4,-3.8%,?,/,-27%,15%,6%,1
CCCn1nnc(NC(=O)c2cccc(Cl)c2)n1,2,0,1.0%,i,1.0,0.1%,-3%,-2%,1
CCCS(=O)(=O)N1CCCC(C(=O)NCCN(Cc2ccccc2)C(C)C)C1 (stereo not given),5,-20,1.8%,i,0.6,-3.1%,10%,1%,1.1
Brc1ccc(N=C/C=C/C=C/Nc2ccc(Br)cc2)cc1,37,19,-0.8%,i,9.5,-8.1%,5%,4%,1
COc1ccccc1-n1c(CNC(=O)c2ccco2)nnc1SCC(=O)Nc1ccc(F)cc1,1,-2,2.1%,i,2.4,-0.6%,0%,1%,1.1
COCCCNC(=O)CCS(=O)(=O)Cc1ccc(C)cc1,-10,-28,0.6%,i,9.3,-10%,-7%,0%,1
Brc1ccc(CSc2nccn2-c2ccccc2)cc1,33,29,2.6%,i,0.9,-1.2%,-9%,1%,1
CCOC(=O)c1sc(C)c2c(=O)n(Cc3ccc(Cl)cc3)c(C)nc12,-18,-1,5.3%,i,0.7,-7.9%,-2%,0%,1
Cc1cc(C(=O)CSc2nnc(-c3ccc(Cl)cc3)n2C)c(C)n1CC1CCCO1 (stereo not given),10,0,0.0%,i,7.9,-2.8%,-6%,0%,1.1
CC(C)COC(=O)Nc1nnc(SCCOc2ccccc2)s1,44,2,1.8%,i,0.8,-2.7%,-3%,-2%,1.1
CCOC(=O)Cc1csc(N/N=C/c2ccc(C(F)(F)F)cc2)n1,15,1,0.7%,i,1.0,0.1%,4%,1%,1.2
Cc1ccc(C(=O)N2CCN(C3c4cccc5cccc(c45)C3NS(=O)(=O)c3ccccc3)CC2)cc1 (stereo not given),-2,2,1.0%,i,1.0,-2.0%,22%,-3%,1.1
Cc1nc(NS(=O)(=O)c2ccccc2)sc1NC(=O)OC(C)C,-6,1,1.6%,i,0.5,-3.6%,-9%,2%,1
Cc1cc2ncn(C3CC(=O)N(C)C3=O)c2cc1C (stereo not given),7,-1,3.2%,i,1.8,-3.9%,3%,4%,1.1
COc1ccc(OCCSc2nnnn2C2CCCCC2)cc1,8,25,1.7%,i,0.7,0.3%,-3%,0%,1.1
COC(=O)C1C2CCC(C2)C1C(=O)OCC(=O)c1ccccc1 (stereo not given),-1,4,0.1%,i,1.4,-3.1%,-5%,-1%,1.1
COc1ccc(C(=S)N(C)C)cc1OC,2,3,18%,i,1.4,-5.0%,-2%,-2%,1.1
N#Cc1cc(-c2ccc(Cl)cc2)cnc1Sc1ccccc1,-8,-4,0.6%,i,0.4,0.8%,-2%,-1%,1.1
O=C(NCc1ccco1)C(c1ccccc1)N(C(=O)Cc1cccs1)c1ccccc1F (stereo not given),4,-2,1.1%,i,1.5,-2.9%,-7%,-1%,1.1

# Next entries.
SMILES,WT yeast gro inh,WT yeast gro inh mutant strain,RSV antiviral HEp-2,Myeloid diff 2,Myeloid diff 2 GFP+ MAC1+ %,XIAP displacement,Salmonella PhoP GFP,Siah-1 displacement,TNAP activation fold
Cc1cccc(Nc2ccccc2C(=O)OCC(=O)N2CCOCC2)c1C,2,-8,3.2%,i,0.7,-4.6%,-8%,1%,1.1
CCCC(=O)N(c1ccc(F)cc1)C1C=CS(=O)(=O)C1 (stereo not given),-7,16,-0.6%,i,4.1,-4.4%,-1%,-4%,1
Cc1ccc(C(=O)n2cnnc2N)cc1,2,13,0.0%,i,1.2,-4.6%,12%,1%,1.1
CCn1c(C)[n+](CCCS(=O)(=O)[O-])c2cc(Cl)c(Cl)cc21,-5,1,0.1%,i,0.9,-1.1%,0%,3%,1.1
COc1cc2c(cc1NC(=O)Nc1ccccc1)oc1ccccc12,69*,62*,30µM*,i,0.1,-0.1%,8%,-1%,1.1
O=C(O)c1ccccc1-c1ccccc1C(=O)NCCCO,-6,-3,0.8%,i,0.2,-4.1%,-5%,-5%,0.9
CC1(C)CC(=O)C2=C(C1)N(Cc1ccccc1)C(=O)C2(NC(=O)C(C)(C)C)C(F)(F)F (stereo not given),-19,11,0.2%,i,1.2,-4.1%,4%,-2%,1
CCCCN1C(=O)CC(Sc2ccccc2C(=O)O)C1=O (stereo not given),0,-5,-1.1%,i,10,-2.5%,6%,-2%,1
Cc1ccc(OCC(=O)Nc2ccccc2N2CCOCC2)c(C)c1,8,2,/,i,0.2,-4.9%,-4%,-1%,1
COc1ccc(OCC(=O)N/N=C/c2ccc(O[C@@H]3O[C@H](CO)[C@@H](O)[C@H](O)[C@H]3O)cc2)cc1,29,9,-1.3%,i,1.9,-7.4%,27%,2%,1.1
O=C(NC(Cc1c[nH]c2ccccc12)c1nnc2n1CCCCC2)c1cccs1 (stereo not given),-9,8,-0.2%,i,8.0,-6.3%,8%,0%,1.1
Cc1ccc(C(=O)c2ccccc2C(=O)O)s1,-5,-17,3.1%,i,0.8,-0.6%,-24%,2%,1.1
Cc1cc2nc(C3CCN(Cc4nnnn4Cc4ccccc4)CC3)[nH]c2cc1C,2,13,6.3%,i,6.8,-2.2%,-7%,0%,1.7
Cc1nc2sc3c(c2c(=N)n1N)CC(C)(C)OC3,8,37,0.1%,i,5.2,-2.3%,-3%,1%,1.1
CN(C)C(=O)COn1c(SCC(=O)N(C)C)nc2ccccc2c1=O,8,-10,0.8%,i,0.8,-3.5%,-6%,2%,1.1
CCCCN1C2=C(C(=O)CCC2)C(c2ccc(Cl)c(Cl)c2)C2=C1c1ccccc1C2=O (stereo not given),67*,36*,3.8%,i,0.8,-6.5%,-8%,-1%,0.9
N=c1n(CCN2CCOCC2)c2ccccc2n1CC(=O)c1ccc(Cl)c(Cl)c1,9,7,?,i,2.0,-6.9%,-8%,-4%,1
COc1ccc(C(=O)NCC2OCCc3ccccc32)cc1 (stereo not given),-1,11,4.0%,i,1.3,-8.8%,1%,-4%,1.1
CC(C)NS(=O)(=O)c1ccc(NC(=S)NC(=O)c2ccc(-c3ccccc3)cc2)cc1,1,-1,2.5%,i,0.3,-19%,-6%,-1%,1

# Screens as filed in PubChem.
